High-throughput results as filed in PubChem.
Calb biofilm kill: mixtures killing C. albicans biofilm; C. albicans biofilm persisters + clotrimazole, fluorescence viability; primary screen in compound mixtures of four per well; inhibition, % at 7.6 µM; 0.02% of 120,000 active; AID 1242;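 active means inhibition above 30.3% in the primary screen of four-compound pools, then above 30% when the compound was retested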;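 further: compounds exposed to preformed 24 h biofilms for 48 h; the number belongs to the whole pool; some results filed as inactive read as strong as hits; inactives centre near 12; 0% = biofilm with clotrimazole alone and 100% = kill control; retested singly at about 60 µM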
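Probe or stimulus – Clotrimazole 50 µg/mL co-treatment · System – C. albicans biofilms · Schedule – 24 h biofilm formation, then 48 h compound exposure, 37 °C · Evaluation – percent inhibition of biofilm viability · Technique – 2-h Alamar Blue fluorescence, 535/590 nm excitation/emission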
Active calls of the source: *. This is a subset, so the mix of outcomes need not match the whole.

SMILES	Calb biofilm kill
CC1(C(=O)N2CC3(CC(c4cccc(NC(=O)CC(c5ccccc5)c5ccccc5)c4)=NO3)C[C@@H]2C(N)=O)CC1 (stereo partly specified)	15.2
COc1cc2c(cc1OC)C(c1cc(OC)c(OC)c(OC)c1)NCC2 (stereo unspecified)	25.0
O=C(COC(=O)c1ccccc1C(=O)c1ccccc1)Nc1ccc(SC(F)F)cc1	8.6
Cc1ccnc(NC(=O)/C=C/c2ccccc2Cl)c1	16.2
Cc1cnc(C(=O)N2CCN(c3ccc(C(F)(F)F)cn3)CC2)cn1	22.1
CSCCC(NC(=O)c1ccc(Cl)cc1)C(=O)O (stereo unspecified)	10.5
Cc1c(NC(=O)c2c(NC(=O)CNC3CC3)sc3c2CCCC3)c(=O)n(-c2ccccc2)n1C	19.1
O=C(Nc1ccc(NC(=O)c2cccs2)cn1)c1ccccc1	29.6
O=C(CNc1ccc2ccccc2c1)N/N=C/c1ccccn1	19.3
COc1ccccc1NC(=O)Nc1nn(C)c2cccc(OC)c12	10.7
COCCn1c(-c2cccs2)csc1=Nc1cccnc1	-8.2
COc1cc2cc(C#N)c(SCC(=O)N3CCOCC3)nc2cc1OC	9.7
CC(=O)c1ccc(NC(=O)C2CCCN(S(=O)(=O)c3c(C)[nH]c(=O)[nH]c3=O)C2)cc1 (stereo unspecified)	13.3
COCc1cc(/C=N\NC(=O)Cc2ccc(OC)cc2)ccc1OC	6.7
CCOC(=O)c1ccc(Nc2ncnc3ccccc23)cc1	14.4
COC(=O)c1ccccc1NC(=O)CSc1n[nH]c(-c2cccnc2)n1	10.0
Cc1ccc(C)c(-n2cc(-c3ccc(Cl)cc3)nc2SCC(=O)NC2CCS(=O)(=O)C2)c1 (stereo unspecified)	-2.9
Brc1ccc(C2=Nc3ccccc3C(c3ccncc3)=NN2)cc1	7.6
CCOC(=O)C(C)Sc1nc(=O)n2cccc(C)c2n1 (stereo unspecified)	7.9
C=CCC(O)c1c(-c2ccccc2)nn(C)c1Cl (stereo unspecified)	26.2
CCOC(=O)c1oc2c(CN3CCN(CCO)CC3)c(O)c(CC)cc2c(=O)c1-c1nc2ccccc2s1	9.6
O=[N+]([O-])c1cc(Cl)ccc1N1CCN(c2ccccc2O)CC1	19.3
C/C=C(\C)C(=O)NCCN1C2=NC[C@H](C(C)C)N2C[C@@H]1Cc1ccc(OC)cc1	18.2
CC(C)CCN1CCN(C2CCN(c3ccccc3)CC2)CC1CCO (stereo unspecified)	22.9
COC(=O)C1=C(C)N(CCCC(=O)O)C(=O)NC1c1cc2c(cc1[N+](=O)[O-])OCO2 (stereo unspecified)	6.5
CN(C(=O)COC(=O)CNC(=O)C12CC3CC(CC(C3)C1)C2)C1CCS(=O)(=O)C1 (stereo unspecified)	15.5
COc1ccc(CCNC(=O)c2ccc(-c3cccc([N+](=O)[O-])c3)o2)cc1OC	13.9
COC(=O)c1scc(C)c1-n1ccc(C(=O)C(=O)N(C)C)c1	12.6
CC(C)CCNC(=O)COc1ccc(N(C)S(=O)(=O)c2ccc(F)cc2)cc1	9.9
CS(=O)(=O)Nc1nnc(SCC(=O)N(c2ccccc2)c2ccccc2)s1	-3.1
COc1ccc(/C(C)=N/OC/C(O)=C(\C#N)c2nc3ccccc3[nH]2)cc1	16.1
NC(=O)[C@H]1CC2(CC(c3cccc(NC(=O)[C@H]4CCC(=O)N4)c3)=NO2)CN1C(=O)c1cc([N+](=O)[O-])cc([N+](=O)[O-])c1 (stereo partly specified)	18.3
CCOC(=O)Nc1ccc2nc(Sc3ccc(Cl)cc3)sc2c1	22.6
OCCC1CN(Cc2cnn(-c3ccccc3Cl)c2)CCN1Cc1ccsc1 (stereo unspecified)	5.5
O=C(c1cccc(Br)c1)N1CCN(C(=O)N2CCOCC2)CC1	12.9
COc1ccc(CCNc2cc(C)nc3c(-c4ccccc4)c(C)nn23)cc1OC	8.9
CCNC(=S)N/N=C/c1c(C)nn(-c2cccc(Cl)c2)c1Cl	13.1
Cc1n(CC(=O)c2ccc(F)cc2)c2ccccc2[n+]1C	3.3
CCNC(=S)N/N=C(\C)c1ccco1	7.7
O=[N+]([O-])c1ccccc1-n1cnc2ccccc21	-5.9
Cn1c(-[n+]2c(-c3ccccc3)cc(-c3ccccc3)cc2-c2ccccc2)nc2cc([N+](=O)[O-])ccc21	25.7
Cc1ccc(-c2nn(-c3ccccc3)cc2CO)o1	19.7
O=C(NN1C(=O)C2C(C1=O)C1C=CC2C12CC2)c1ccccc1 (stereo unspecified)	6.4
COC(=O)C1=C(C)N(c2ccc(OC)c(OC)c2)C(=O)/C1=C\c1ccco1	13.1
CCc1sc(NC(=O)C(C)C)nc1-c1ccccc1	17.0
Cc1ccc(-c2nn(CC(=O)NCc3ccccn3)c(=O)c3ccccc23)cc1S(=O)(=O)N(C)C	11.4
O=C(O)CCCNc1ccc(S(=O)(=O)N2CCCCC2)cc1	17.1
NS(=O)(=O)c1ccc(CCNC(=O)C(=O)c2c[nH]c3ccccc23)cc1	8.4
O=C(CCNS(=O)(=O)c1cccc2nonc12)NC1CCCCCC1	10.2
Cc1cc(NC(=O)CSc2nnc(C(C)N(C)C)n2-c2ccc(F)cc2)no1 (stereo unspecified)	6.9
(listing goes on)
SMILES	Calb biofilm kill
COCCn1c(SCC(=O)Nc2cc(OC)ccc2OC)nc2c(c1=O)SC(C)C2 (stereo unspecified)	7.0
C=C(C)CNC(=S)N=Nc1c(O)[nH]c2ccc([N+](=O)[O-])cc12	16.7
COc1ccc(C(c2c(C)n(C)n(-c3ccccc3)c2=O)c2c(C)n(C)n(-c3ccccc3)c2=O)cc1O	3.3
COC(=O)Oc1ccc(/C=C/C(=O)OC(C)C)cc1OC(=O)OC	3.6
O=C(CCl)NN1C(=O)NC2(CCCCC2)C1=O	25.7
COCCNC(=O)C(c1ccccc1C)N(C(=O)Cn1nnc2ccccc21)c1cccnc1 (stereo unspecified)	14.3
CC(C)c1nn2c(=O)cc(O)nc2s1	23.4
CN(Cc1ccccc1)C(=O)c1ccc([N+](=O)[O-])o1	16.2
CN(CC(=O)NC1CC1)S(=O)(=O)c1ccc(F)cc1	11.5
CCOc1ccccc1N1CCN(C(=O)CCCc2nc3ccccc3s2)CC1	19.3
NC(=O)Oc1cccc(OC(N)=O)c1	8.3
CCCNC1=CC(=O)CC(C)(C)C1	3.4
Cc1cc(Cl)c(OCCCn2ccnc2)c(Br)c1	13.7
COc1ccc(C2C(C)C3(O)CC(C#N)(C(=O)N3)C2(C#N)C#N)cc1 (stereo unspecified)	27.5
CCOc1cc(/C=N\Nc2ncc(F)c(N3CCOCC3)n2)ccc1Oc1nc(Cl)ncc1F	8.1
Cc1ccccc1-n1nnnc1SCC(C)C	13.9
O=C(Nc1ccccc1N1CCOCC1)c1cc2c(s1)CCCCC2	12.0
O=C(Nc1nccs1)c1cc(-c2ccccc2)nc2ccccc12	7.1
O=C(/C=C/c1ccc(F)cc1)NC(Cc1c[nH]c2ccccc12)C(=O)O (stereo unspecified)	4.1
CCOc1ccc(Cn2c3ccc(OC)cc3c3nc4ccccc4nc32)cc1	5.3
COc1cccc(N=c2oc3cc(O)ccc3cc2C(=O)NCC2CCCO2)c1 (stereo unspecified)	23.2
O=C(NCCC1=CCCCC1)c1ccc(F)cc1	10.8
COc1ccc(C(=O)CSC#N)cc1OC	7.9
CC(C)(/C=N/NC(=O)CSCc1ccccc1Cl)CCC#N	9.2
COc1cc(NC(=O)c2cc(C)nc3ccccc23)cc(OC)c1	8.0
Cc1ccc(C(=O)N2CCC(Cc3ccccc3)CC2)cc1[N+](=O)[O-]	11.3
Cc1nnc(SCC(=O)NC2CCS(=O)(=O)C2)n1Cc1ccccc1 (stereo unspecified)	0.9
CN(C(=O)CS(=O)(=O)Cc1ccccc1Cl)c1ccccc1	23.2
Cc1ccccc1NCC(=O)N/N=C\c1ccc([N+](=O)[O-])s1	17.2
COc1cccc(/C=N/Nc2nc(-c3cccnc3)nc3ccccc23)c1	30.3

Taken from the listing for reference:
SMILES	Calb biofilm kill
Cc1nnc(SCC(=O)NC2CCS(=O)(=O)C2)n1Cc1ccccc1 (stereo unspecified)	0.9
CN(C(=O)CS(=O)(=O)Cc1ccccc1Cl)c1ccccc1	23.2
Cc1ccccc1NCC(=O)N/N=C\c1ccc([N+](=O)[O-])s1	17.2

(next part)
SMILES	Calb biofilm kill
CCn1c(C)[n+](CCOC(C)=O)c2cc(Cl)c(Cl)cc21	1.2
CCN1C(=O)[C@@H]2[C@H](C1=O)[C@@H]1C[C@H]3C(=O)N(CC)C(=O)[C@H]3[C@@H]3C1=C(C(=O)N1C(=O)OC(=NCC4CC4)[C@]31C)[C@@H]2C	19.9
Cc1cccc(NS(=O)(=O)c2cnc[nH]2)c1	18.2
CN(C)c1ccc(CNn2cnnc2SCC(=O)NC(C)(C)C)cc1	28.5
COc1ccc(OC)c(-c2csc(NC(=O)CSc3ccc([N+](=O)[O-])cc3)n2)c1	21.5
O=[N+]([O-])c1cc(S(=O)(=O)Nc2ccccc2)ccc1NCc1ccccc1	13.7
Nc1nc(SCC(=O)Nc2cccc(S(=O)(=O)N3CCCCCC3)c2)n[nH]1	3.4
O=C(COC(=O)c1cncc(Br)c1)NCc1ccccc1	-6.2
COc1cc(NC(=O)Nc2ccc3c(c2)OCO3)cc(OC)c1OC	0.2
Cc1ccsc1C(=O)N1CCCC(C(=O)c2cc(F)ccc2F)C1 (stereo unspecified)	5.2
Cc1cc(C)nc(NC(C)(C)C(=O)O)n1	17.8
Cc1cccc(C(c2c(C)nn(-c3ccccc3)c2N)c2c(C)nn(-c3ccccc3)c2N)c1	2.2
CC(/C=N/n1c(-c2ccco2)n[nH]c1=S)=C\c1ccco1	-1.8
O=C(CC(C(=O)O)c1ccccc1)Nc1cccc2ccccc12 (stereo unspecified)	17.5
CC(=O)CSc1ccc(-c2nc3cc(C)c(C)cc3[nH]2)cn1	5.2
Cc1nnc2sc(SCC(=O)Nc3nccs3)nn2c1=O	4.1
Cc1cc(OCCCN2CCN(Cc3ccccc3)CC2)ccc1[N+](=O)[O-]	11.6
C/C(CC(=O)Nc1cc(Cl)ccc1Cl)=N\NC(=O)c1ccccc1Br	16.4
O=C(Nc1ccc(-c2noc(COc3ccccc3Cl)n2)cc1)c1ccco1	6.3
O=C(CSc1ccc2c(c1)OCCO2)Nc1cccc(S(=O)(=O)N2CCCCC2)c1	19.4

5 entries out of the list, sorted by heavy-atom count, ascending.
SMILES	Calb biofilm kill
Cc1cc(C)nc(NC(C)(C)C(=O)O)n1	17.8
O=C(NN1C(=O)C2C(C1=O)C1C=CC2C12CC2)c1ccccc1 (stereo unspecified)	6.4
COc1ccc(OC)c(-c2csc(NC(=O)CSc3ccc([N+](=O)[O-])cc3)n2)c1	21.5
O=C(COC(=O)c1ccccc1C(=O)c1ccccc1)Nc1ccc(SC(F)F)cc1	8.6
Cc1cccc(C(c2c(C)nn(-c3ccccc3)c2N)c2c(C)nn(-c3ccccc3)c2N)c1	2.2

(list continues)
SMILES	Calb biofilm kill
Fc1ccc(COc2ccccc2-c2ccnc3ncnn23)cc1	1.0
O=[N+]([O-])c1ccc(-c2cn(-c3ccccc3F)c(=S)[nH]2)cc1	14.3
Cc1ccc(OCC(=O)Nc2ccc3c(c2)CCC3)c([N+](=O)[O-])n1	16.6
Cn1ncc(Br)c1C(=O)N1CCN(C(=O)c2ccco2)CC1	10.8
C/C=C(/C)C(=O)Nc1cccc(C2=NOC3(C2)C[C@H](C(N)=O)N(C(=O)Cc2ccc([N+](=O)[O-])cc2)C3)c1 (stereo partly specified)	10.2
C/C(CC(=O)N1CCN(C=O)CC1)=N\NC(=O)c1ccc(Cl)cc1	7.6
C/C(CC(=O)NC1CCCCC1)=N\NC(=O)COc1ccc(C)cc1Br	13.8
CN1CCC(N(C)CC(O)c2ccccc2)CC1 (stereo unspecified)	11.5
CN1CCN(C(=O)c2cnn3c2NC(c2ccccc2)CC3C(F)(F)F)CC1 (stereo unspecified)	16.1
O=C(CSc1ccc2nnc(-c3ccccc3)n2n1)N1CCCc2ccccc21	10.4
COc1ccc(C2N(c3ccc4c(c3)OCCO4)C(=O)C2(F)F)cc1OC (stereo unspecified)	20.0
O=C(NCCc1ccccc1)c1ccc(-c2ccccc2Cl)o1	0.9
C/C(N)=C(/C#N)C(=O)CSc1n[nH]c(-c2cccs2)n1	12.1
COc1cccc(CN2CCN(Cc3ccc(O)cc3)CC2CCO)c1 (stereo unspecified)	-1.4
COc1cc2[nH]ccc(=O)c2cc1OC	16.3
Clc1ccc(OCCn2cnc(Cl)c2Cl)cc1	25.6
CC1(C)CC(N(Cc2ccccc2)C(=O)Cc2ccccc2)CCO1 (stereo unspecified)	15.2
COC(C[C@H]1O[C@H]1[C@@H](O)[C@H](C)OCc1ccccc1)OC	14.7
COc1ccccc1NC(=O)Cn1cc(C(=O)c2ccco2)c2ccccc21	-2.6
O=C1CSC(c2ccc(Cl)cc2)N1c1cccnc1 (stereo unspecified)	14.2
CN1CCN(C(=S)SCC(=O)Nc2nc(-c3ccccc3)c(-c3ccccc3)o2)CC1	6.3
COc1ccccc1/C=N/NC(=O)c1sc(C)nc1C	19.5
COCCNC(=O)C(=O)c1c(-c2ccccc2)[nH]c2ccccc12	19.1
O=C(NCCc1ccccc1)c1nc2nc(-c3cccs3)cc(C(F)(F)F)n2n1	7.9
CC(C)c1ccc(S(=O)(=O)c2ccc(NN)cc2)cc1	13.9
CCN(CC)C1=NC=CC(c2ccccc2)=CC1C (stereo unspecified)	0.8
O=C(COC(=O)/C=C/c1ccc(Cl)cc1)NCCN1C(=O)CSC1=O	14.1
CC(C)=CCN1CCN(Cc2cccc3nonc23)CC1CCO (stereo unspecified)	2.9
C#CCNC(=O)C1=C[C@H](c2ccccc2)C[C@H](OCCCCO)O1	17.7
Cc1ccc(-n2nnnc2Sc2ccc(S(=O)(=O)NCCN(C)C)cc2[N+](=O)[O-])cc1	19.7

Shown as a markdown table: 2 of the compounds above.
| SMILES | Calb biofilm kill |
| --- | --- |
| CCN(CC)C1=NC=CC(c2ccccc2)=CC1C (stereo unspecified) | 0.8 |
| O=C(COC(=O)/C=C/c1ccc(Cl)cc1)NCCN1C(=O)CSC1=O | 14.1 |
